# RN4220 kill – growth inhibition of S. aureus RN4220, primary screen, OD600; 16 h; inhibition, % (no concentration beside the values); 330,000 compounds, 0.33% hits; AID 1259311, 2017;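 active means z-score of -3 or lower and OD600 up to 0.18 on both plates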;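 further: plate controls were untreated cells for no effect and reference antibiotic for full effect; stock transfer was 100 nL into about 80 µL; one replicate is shown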
# Autofluor counter – flagged as autofluorescent in microsphere protease counterscreen; compound autofluorescence counterscreen, microsphere flow cytometry; hits give high values; fluorescence intensity (no concentration beside the values); 360,000 compounds, 3.1% hits;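 active means at least 3 SD above the mean of all compounds, about 16000 in these data; inconclusive means too few beads counted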;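 further: 100 nL of 1 mM stock went into each well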
# Mtb hypoxia inh – PubChem AID 1159583; M. tuberculosis hypoxia-regulated fluorescent reporter, fluorescence; 300,000 compounds, 0.1% hits; fluorescence inhibition, % (no concentration beside the values);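 active means 35 to 45% if threefold the growth effect, above 45% if 1.5-fold the growth effect; inactive means the rest, general growth blockers included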;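 further: wells of about 50 µL received 100 nL stock; 0% = vehicle wells and 100% = reference inhibitor wells; whole bacteria with a GFP reporter of the hypoxia response; strong numbers were not always called active; many hits fall short of the cut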
# Sa ugtP lethal – growth inhibition of ugtP-null S. aureus, primary screen, RN4220 ugtP deletion, OD600; 16 h; some inactives read as strong as hits; growth inhibition, % (test concentration not listed); 330,000 compounds, 0.54% hits;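 active means z-score under -3 and OD600 up to 0.15 on both plates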;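 further: plate controls were untreated wells for no effect and antibiotic for full effect; wells of about 80 µL received 100 nL stock; the first replicate is given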
# BJeLR lethal – MLPCN primary cell-based screen for lethality selective to Ras in HRASV12 cells; BJeLR (HRASV12) viability, CellTiter-Glo ATP luminescence, 48 h; reference of the scale not given here; inhibition, % (concentration not given with the values); 300,000 compounds, 0.17% hits;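 active means replicate mean above 50%; inconclusive means above 50% but judged a plate artefact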;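 further: 50 nL library stock added to about 25 µL; numbers are from one replicate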
# PrP UTR inh – inhibition of PrP 5' UTR reporter expression; cell-based PrP 5' UTR mRNA reporter, plate reader; inhibition, % (test concentration not listed); 340,000 compounds, 0.35% hits; AID 488862, 2010;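 active means every replicate at 50% or more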;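 further: 0 = median of the neutral control wells; tested in H4 reporter cells; numbers are from one replicate; inactives centre near -14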
# Mtb hypoxia inh growth – recorded beside Mtb hypoxia inh, whose call it bears; growth inhibition, %; measured here: M. tuberculosis growth (absorbance);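 0% = vehicle and 100% = reference antibiotic; read after six days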
# * = called active by the depositor; ? = inconclusive; . = no result given. No enrichment for hits, and some 4% of all compounds hit somewhere here.
# Below each SMILES – Mtb hypoxia inh growth, BJeLR lethal, Sa ugtP lethal, Mtb hypoxia inh, Autofluor counter, RN4220 kill, PrP UTR inh
1) COc1ccc2nc(C)cc(SCC(=O)NN=Cc3ccco3)c2c1
 : 15, ., 3, 12, ., 0.8, .
2) COC(=O)c1cccc(NC(=O)c2ccccc2)c1
 : 12, -3, 4, 19, 4783, 4.0, -8
3) CSc1ccc(CN(C)CC(=O)Nc2c(F)cccc2F)cc1
 : 5, 6, 17, 8, 3335, -4.2, -11
4) CCc1c(C)nc(N)nc1Cl
 : 0, 0, 5, -8, 4461, 2.4, -10
5) Cc1ccc(S(=O)(=O)N(CC(=O)O)Cc2ccco2)cc1
 : 10, -2, 11, 9, 5128, 1.8, -11
6) COc1ccc([C@H]2[C@H](C(=O)C(C)(C)C)N3N=Cc4ccccc4C3C23C(=O)OC(C)(C)OC3=O)cc1 (some centres undefined)
 : -2, -14, -4, -4, 8506, 3.2, -11
7) Nn1c(Cc2cccc3ccccc23)nnc1SCc1ccccc1Cl
 : 0, -1, -1, -2, 1991, -4.5, -12
8) CCc1cc(=O)[nH]c(SCC(=O)N2CCCC2)n1
 : 4, -1, 0, -3, 5886, -0.6, -9
9) CCCn1nc(C(=O)NC2CCCC2)c2ccccc2c1=O
 : 2, ., -4, -5, 6072, -0.6, 3
10) N#CC1(Cc2ccc(Cl)cc2)c2ccccc2C=CN1C(=O)c1ccccc1 (centres undefined)
 : -4, 4, 29, -7, 3337, 0.8, -3
11) Cc1ccc(C)c(OC2=NS(=O)(=O)c3ccccc32)c1
 : 4, -5, 3, 10, 3159, 2.9, -9
12) COc1cc(Cl)cc(C(c2c(C(=O)O)[nH]c3ccccc23)c2c(C(=O)O)[nH]c3ccccc23)c1O
 : 10, 1, -6, 0, 3587, 25, -8
13) Nc1ccc(Oc2ccc3c(c2)C(=O)N(CC2CCCO2)C3=O)cc1 (centres undefined)
 : 9, -3, 4, 0, 3833, 1.6, -3
14) COc1ccnc(N2CCN(c3ccccc3)CC2)c1C#N
 : 8, 5, 0, 10, 8120, 4.1, -25
15) COc1ccccc1NC(=O)Cn1c(CN2CCCCC2)nc2ccccc2c1=O
 : 2, -4, 13, 4, 8095, 3.7, -13
16) Cc1ccc2nc(Nc3ccc(C)c(Cl)c3)c3nncn3c2c1
 : 14, -7, -26, 2, 4001, -2.5, -2
17) O=C(NCc1nc2ccccc2[nH]1)C1=C[C@@H](C2CCCCC2)C[C@@H](OCc2ccc(CO)cc2)O1
 : 32, -8, -19, 15, 3233, -6.7, 11
18) COc1ccc(C2CC(=O)C=C(c3ccccc3C(F)(F)F)C2)cc1 (centres undefined)
 : 4, ., 35, 6, ., 0.6, .
19) CCOC(=O)c1sc2nc(CSc3ccccc3Cl)[nH]c(=O)c2c1C
 : -3, -7, 11, 4, 4234, 3.0, -16
20) Cc1cc(=O)oc(C)c1C(=O)NCCN1CCOCC1
 : -7, -11, -2, -13, 22773*, -2.4, -13
21) CCOc1ccc(Nc2cc(=O)[nH]c(=O)[nH]2)cc1
 : 6, 1, 9, 9, 3721, 4.9, -13
22) CCOCc1cc(CN2CCC(CCC(=O)NC3CC3)CC2)ccc1OC
 : 1, -7, 7, 19, ., 5.5, -57
23) O=C(Nc1ccncc1)c1ccc2c(c1)C(=O)N(C1CCCCC1)C2=O
 : 3, -8, 15, 0, 4812, 1.4, -7
24) CCCNC(=O)Cc1c(C)n(C(=O)c2ccc(Cl)cc2)c2ccc(OC)cc12
 : -9, 3, 9, 6, 4713, -5.0, -2
25) O=C(CNC(=O)c1ccco1)N=Nc1c(O)[nH]c2ccc([N+](=O)[O-])cc12
 : 0, 2, 3, 6, 3875, 4.0, -20
26) COc1cccc(NC(=S)NC(=O)Cc2ccc(Cl)cc2)c1
 : 10, -4, 43, 0, 4372, -2.0, -12
27) Cn1c(=O)c2c(nc(CN3CCc4ccccc4C3)n2Cc2cccc(Cl)c2)n(C)c1=O
 : 9, 0, -6, -7, 5755, -8.1, -12
28) CCOC(=O)c1c(CCl)nc2ccccc2c1C
 : ., 13, 10, ., 4255, 5.3, -20
29) CC(C)CCNS(=O)(=O)c1ccc(-c2ccc(S(=O)(=O)NCCC(C)C)cc2)cc1
 : -8, 5, 2, 1, 8174, 7.4, -7
30) O=c1oc(-c2cccs2)nc2sc3c(c12)CCCC3
 : 9, 1, -15, 11, 4590, 7.5, 4
31) O=C(Nc1cccnc1)c1ccccc1F
 : ., 1, 3, ., 3832, 3.0, -30
32) c1ccc(-c2nnc(SCc3cn4ccsc4n3)o2)cc1
 : ., 5, 8, ., 3169, 3.1, -30
33) CC(C)CN(C(=O)CSc1nc2ccccc2o1)c1c(N)n(Cc2ccccc2)c(=O)[nH]c1=O
 : 3, ., 3, 4, 3874, 5.1, -7
34) COc1ccc2[nH]cc(CCNC(=O)c3ccc4ccccc4n3)c2c1
 : -3, 6, -6, 6, 4244, 4.9, -14
35) COc1ccc2oc(C(=O)NC3(C)CCS(=O)(=O)C3)c(C)c2c1 (centres undefined)
 : 2, -18, 4, 3, 4266, 2.9, -20
36) CC(C)(O)c1[nH]c2cc(F)ccc2c1C(C)(C)O
 : ., 5, ., ., 2970, ., -1
37) Cc1ccc(/C=N/NC(=O)CCCOc2ccc(Cl)cc2Cl)cc1[N+](=O)[O-]
 : ., -5, ., ., 3498, ., -1
38) COc1ccc(NC(=S)NNC(=O)OC(C)(C)C)cc1OC
 : 7, -4, -1, -9, 24133*, 0.6, -13
39) CC(C)n1cc(CN2CCCC(C(=O)Nc3cccc(-c4cc5ccccc5[nH]4)c3)C2)cn1 (centres undefined)
 : ., 11, ., ., 5256, ., 9
40) O=C(CNS(=O)(=O)c1ccccc1)NN=Cc1ccc(Cl)cc1
 : 7, ., -4, 5, ., -0.1, .
41) CCC(CO)Oc1cc(NCc2cc(C)cc(C)c2)c2ncn(C(C)C)c2c1 (centres undefined)
 : 12, ., -11, 15, 4075, 2.1, 10
42) Cc1cc(C)nc(NN=Cc2ccc(Cl)cc2)n1
 : 3, ., 2, 8, ., 2.2, .
43) COc1ccc(C(C)=NNC(=O)c2cc(-c3cccnc3)nc3ccccc23)cc1
 : -17, ., -3, -1, ., -2.6, .
44) Cc1ccc(N2CC(C(=O)OCc3ccccc3F)CC2=O)cc1 (centres undefined)
 : ., -6, 24, ., 2292, 16, -9
45) COc1cc(C(=O)NC(=S)Nc2ccc(Cl)cn2)cc(OC)c1OC
 : -8, -3, -19, -12, 5741, -0.1, -11
46) CCN(CC)C(=O)c1cn(CC)c(=O)c2cc(OC)c(OC)cc12
 : 3, -4, 0, 3, 3354, 0.4, -16
47) COc1ccc(OC)c(-n2c(=S)[nH]c3cc(C(=O)NCCCN4CCCC4=O)ccc3c2=O)c1
 : -10, -1, 16, 3, ., -1.4, .
48) C/C(=N\N1CCN(c2ccc(Cl)cc2)CC1)c1ccco1
 : ., -12, ., ., 2131, ., -29
49) O=C(COC(=O)C1CC2C=CC1C2)Nc1ccccc1 (centres undefined)
 : 6, -15, 4, 4, 2529, 4.3, -16
50) O=C(NOCc1ccccc1)c1cccc([N+](=O)[O-])c1
 : 6, ., 10, 3, 3753, 4.4, -28
51) C=C1CC[C@@]23CC[C@]4(C)[C@@](OC2=O)([C@@H]3C1)[C@H]1O[C@H]1C1[C@@]2(C)CC[C@H](O)C(C)(C)C2CC[C@]14C (some centres undefined)
 : ., ., 5, ., 5526, 9.3, -25
52) O=C(NCCc1ccccc1)c1nc(-c2cccs2)no1
 : 14, -9, 3, 12, 2015, 1.0, -38
53) COc1ccc(-c2cc(C(F)(F)F)nc(N3CCCCCC3)n2)cc1
 : 10, 2, 95*, 14, 7131, -4.3, 12
54) S=C1NCN(Cc2ccco2)CN1
 : 4, 4, 8, -3, 4291, 9.6, -11
55) O=C(CS(=O)(=O)c1ccccc1)Nc1nc(-c2ccc(F)cc2)cs1
 : -4, 0, 5, 5, 4065, 2.1, -10
56) CC(C)(C)c1ccc(CN(Cc2ccccc2)C(c2ccccn2)c2nnnn2C(C)(C)C)cc1 (centres undefined)
 : ., 5, 15, ., 4338, -3.5, -29
57) Cc1ccc(C2(C)NC(=O)N(CCOc3ccccc3)C2=O)cc1 (centres undefined)
 : 8, -4, -2, 8, 2893, 3.7, -14
58) CCSc1c(C(=O)NC)ccc2c1C(=O)c1ccccc1C2=O
 : 6, 6, 1, 7, 2910, -2.9, -11
59) Cc1cc(OCCCn2cnc3ccccc3c2=O)ccc1[N+](=O)[O-]
 : 0, -15, -4, -1, 2553, 4.9, -18
60) CC(C)(C)c1ccc(-c2nnc(SCC(=O)O)n2N)cc1
 : -5, -6, -11, -13, 22213*, -6.0, -15

# The listing continues.
# Below each SMILES – Mtb hypoxia inh growth, BJeLR lethal, Sa ugtP lethal, Mtb hypoxia inh, Autofluor counter, RN4220 kill, PrP UTR inh
61) CC(Sc1nc(N)cc(N)n1)C(=O)NCC1CCCO1 (centres undefined)
 : 0, ., 7, 1, 9046, -0.2, -10
62) CC(C)Oc1ccc(C(CC(=O)O)NC(=O)CSc2ncn[nH]2)cc1 (centres undefined)
 : ., 1, 11, ., 2373, 3.0, -10
63) COCCCNC(=O)CN(c1cc(Cl)ccc1OC)S(C)(=O)=O
 : 9, -1, 5, 10, 4252, 6.1, -19
64) CNC(=O)CC1C(=O)N(C)C(=S)N1NC(=O)c1ccccc1 (centres undefined)
 : 6, -5, 3, 15, 3898, 3.5, -7
65) O=S(=O)(c1ccc(Cl)cc1)n1cccn1
 : 1, -1, 6, 15, 3862, 4.4, -2
66) CCOC(=O)c1c(C)n(C)c2ccc(O)c(CN3CCCCC3)c12
 : ., -1, -6, ., 2745, 1.6, -9
67) O=C(CCc1ccccc1)Nc1ccc(NS(=O)(=O)c2ccccc2)cc1
 : -9, 4, 9, 5, 3940, -2.1, -8
68) O=C(CCc1ccccc1)NNC(=O)c1ccco1
 : 11, -1, 2, 15, 3666, 2.0, -21
69) CCCCCOC(=O)NCCOC(=O)Nc1ccc(C(=O)OCC)cc1
 : 10, 4, -3, 2, 9237, 5.1, -23
70) CC1=C(C(=O)OC(C)C)C(C)NC(=O)N1 (centres undefined)
 : 13, -1, 0, 2, 8963, 6.7, -33
71) CCOCc1nnc(NC(=O)c2ccco2)s1
 : 7, -6, 1, -5, 3935, 6.0, -7
72) CN(C)c1ccc(-c2nnn(CC(=O)NCc3ccc4c(c3)OCO4)n2)cc1
 : 5, -17, -2, 2, 4714, -0.8, -29
73) CCOc1ccc(S(=O)(=O)Nc2ccn(C)n2)cc1
 : -4, ., 7, 5, 4824, 0.1, 6
74) Cc1nn(Cc2noc(C(=O)NCC3CCCO3)n2)c(C)c1Br (centres undefined)
 : 2, -3, 5, 1, 5333, 3.6, -16
75) CCN1CCN(c2cc(C)c3cc(NC(=O)c4ccc5c(c4)OCO5)ccc3n2)CC1
 : 20, 3, -17, -4, 5964, 1.0, -17
76) CN1CC2C(c3ccccc3)C3(c4cccnc4)CC2(C3)C1c1ccccc1 (centres undefined)
 : 15, ., 1, 7, ., 1.4, .
77) CC(C)(C)C(=O)N(Cc1nc2ccccc2c(=O)[nH]1)Cc1cccs1
 : 14, 13, 4, 20, 6773, 4.6, -15
78) COc1ccccc1NC(=O)CC(=O)CSc1nnc(-c2ccc(C)cc2)n1-c1ccccc1
 : 4, -11, -3, 12, 2776, 8.3, -1
79) Cc1ccc(-c2noc(CCC(=O)N3CCCC3)n2)cc1
 : ., ., 1, ., 4714, 3.4, -20
80) C=CCn1c(SCC(=O)NC(=O)NCc2ccco2)nc2sc(C)c(C)c2c1=O
 : -7, -7, -6, -7, 10722, 0.5, -11
81) CC(=NNC(=O)CN1CCN(S(=O)(=O)c2ccc(Br)cc2)CC1)c1ccco1
 : 11, ., 5, 12, ., 2.0, .
82) O=C(NC1CCCC1)c1ccc(CS(=O)(=O)Cc2ccccc2F)o1
 : 0, -8, 3, 0, 5803, 0.2, -21
83) COc1ccc(NC(=O)C(c2cc3c(cc2[N+](=O)[O-])OCO3)N(C)C)cc1 (centres undefined)
 : -2, 5, 2, 2, 11440, 7.1, -9
84) COc1ccccc1-n1cnc2cc(C(=O)NC3CCCC3)ccc21
 : 2, ., 13, 5, 11335, 1.3, -18
85) CC(C)C[C@H](NC(=O)[C@@H]1Cc2c([nH]c3ccccc23)C2c3ccccc3C(=O)N21)C(=O)NCC1CCCO1 (some centres undefined)
 : ., 0, -3, ., 4072, -0.3, -10
86) O=C(N/N=C/c1ccc(O)cc1)c1cc(-c2ccccc2)nc2ccccc12
 : ., -11, ., ., 3188, ., -22
87) O=C(NNC(=O)C1CCC1)c1cccc(Cl)c1
 : 6, ., 0, -1, ?, 0.4, 10
